Compound activity as filed in PubChem BioAssay.
Bfl-1 A1 inh: inhibitors of the anti-apoptotic protein A1, read as caspase activation; MEF A1-2A-BIM cells, Caspase-Glo 3/7 luminescence, 3 h; percent of clofoctol response, vehicle zero; caspase activation, % (concentration not given with the values); 330,000 tested, 0.066% active; AID 2462;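 active = over half of replicate activation scores above 10%, or exactly half above 10 with the replicate mean above 10; inconclusive = replicate mean below 10 yet half the replicates above 10; inactive = over half of replicates below 10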;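 note: wells of about 30 µL received 50 nL stock; many hits fall short of the cut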
Ecoli growth: inhibitors of Escherichia coli growth | OD600, 23 h; stronger effect = lower value | OD600 absorbance (no concentration beside the values) | 330,000 tested, 0.21% active | AID 1053175;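 active = OD600 absorbance below the run mean of sample wells minus 3.6 SD, in any replicate, cut at about 0.56 in these data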;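 note: stock transfer was 300 nL into about 60 µL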
HNF4A DNA FP: change in binding of human HNF4 alpha to DNA; P41235; HNF4a-FITC DNA binding, fluorescence polarization, 1 h; activity change, % at 10 µM; 360,000 tested, 0.3% active; AID 1224865; in the data active = activity change above about 30%, passing the limit was not always enough;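 note: controls were the assay level and a saturating level of protein; the project sought stronger binding though the title names inhibitors; some compounds called inactive have numbers as strong as hits; positive values seem to mean higher polarization but the record does not say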
UCH37 inh: blocks the human deubiquitinase UCH37. purified proteasome/UCH37, Ub-AMC cleavage fluorescence. inhibition, % (test concentration not listed). 330,000 tested, 0.33% active;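 active = mean of two replicates above 20%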;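 note: 0% = compound-free wells with enzyme and 100% = wells lacking proteasome; stock transfer was 100 nL into about 20 µL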
Target sequence (Q9Y5K5 whole entry, looked up): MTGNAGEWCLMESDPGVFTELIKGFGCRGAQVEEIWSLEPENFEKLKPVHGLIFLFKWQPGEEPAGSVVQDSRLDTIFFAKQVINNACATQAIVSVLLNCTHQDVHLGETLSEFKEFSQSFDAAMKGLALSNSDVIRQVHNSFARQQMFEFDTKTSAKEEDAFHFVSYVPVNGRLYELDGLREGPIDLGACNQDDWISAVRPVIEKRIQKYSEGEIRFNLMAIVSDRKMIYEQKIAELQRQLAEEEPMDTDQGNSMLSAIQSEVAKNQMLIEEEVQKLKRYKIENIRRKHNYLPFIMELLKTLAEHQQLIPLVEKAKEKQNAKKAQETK
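Material: Human UCH37 enzyme supplied as purified proteasome complex | Schedule: 30 min preincubation with enzyme, 25 min cleavage at room temperature | Detection: AMC fluorescence 355/460 nm | Measure: % inhibition of Ub-AMC cleavage fluorescence | Controls: Wells without proteasome as full block, compound-free enzyme plus substrate as uninhibited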
Vif TR-FRET: HIV-1 Vif–A3G interaction blockers – biochemical, TR-FRET, GST-Vif 1-94, biotin-A3G peptide, dose response retest, primary screen (AID 1117319); 260,000 tested, 0.57% active; TR-FRET GST-Vif / biotin-A3G peptide binding; higher % means a stronger effect; test concentration not given here; strong numbers were not always called active; inhibition, %; hits with a dose series show IC50 in µM;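 active = above the screen mean plus three standard deviations and confirmed in dose response; inconclusive = results disagree or hit not tested in dose response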;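 note: Vif residues 1-94 fused to GST binding biotinylated APOBEC3G peptide 110-148; 0% = full assay without inhibitor and 100% = GST in place of GST-Vif; retest series ran down from 100 µM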
B2AR ag: agonists of human beta-2 adrenergic receptor inducing internalization; P07550; Am2.2-beta2AR cells, FAP receptor internalization, flow cytometry; reference of the scale not given here; response, % (concentration not given with the values); 340,000 tested, 0.43% active; AID 504454;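 active = response above a set limit, near 3 SD of response in nonfluorescent compounds, cut at about 42% in these data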;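 note: stock transfer was 100 nL into about 11 µL; a reference agonist was the positive control; negative values mostly stem from fluorescent compounds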
Target sequence (P07550 whole entry, looked up): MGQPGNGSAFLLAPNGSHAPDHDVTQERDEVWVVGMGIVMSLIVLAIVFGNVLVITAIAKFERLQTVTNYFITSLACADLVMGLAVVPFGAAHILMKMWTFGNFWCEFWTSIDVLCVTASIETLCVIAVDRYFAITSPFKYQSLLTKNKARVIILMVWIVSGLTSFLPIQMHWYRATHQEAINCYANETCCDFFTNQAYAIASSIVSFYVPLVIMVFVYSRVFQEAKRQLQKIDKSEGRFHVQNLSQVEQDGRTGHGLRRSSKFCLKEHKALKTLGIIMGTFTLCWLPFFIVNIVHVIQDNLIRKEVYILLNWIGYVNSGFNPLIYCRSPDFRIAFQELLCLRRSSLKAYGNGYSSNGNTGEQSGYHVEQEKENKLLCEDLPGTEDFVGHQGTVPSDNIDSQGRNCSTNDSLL
LANA-H2A inh: blocks KSHV LANA binding to histone H2A/H2B; Q9QR71; cell-free LANA-H2A/H2B peptide, fluorescence polarization; inhibition, % (test concentration not listed); 320,000 tested, 0.6% active; AID 2629; in the data active = inhibition mostly above about 10%, no sharp cut-off; inactive = mostly below about 6.7%;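 note: stock transfer was 7.5 nL into about 10 µL; 0% = median of vehicle wells and 100% = median of positive control wells; one replicate is shown; the record names a cut of 25% in any replicate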
* marks the source's active call; other numbers are inactive results; i = inactive; u = inconclusive; x = not tested or not shown; ! = not active in a repeat.

SMILES	Bfl-1 A1 inh	Ecoli growth	HNF4A DNA FP	UCH37 inh	Vif TR-FRET	B2AR ag	LANA-H2A inh
COC(=O)c1cccc(N(CC(=O)NC2CCCC2)C(=O)CNC(=O)c2cccs2)c1	0.0	0.73	-4.9	-0.1	-5%	-6	0.4
CC/C(=C\c1ccc(N(C)C)cc1)c1ccncc1	x	0.69	0.5	-3.9	1%	0	x
CCN(CC)C(=O)CSc1nc(O)c(Cc2ccccc2)c(=O)n1-c1ccccc1C	0.4	0.69	-3.0	6.0	6%	1	-0.3
Cc1cccc(NC(=O)CCCCC(=O)Nc2cccc(C)c2)c1	0.7	0.67	0.2	4.8	x	10	2.1
Cc1ccc(NC(=S)NNC(=O)Cn2nc([N+](=O)[O-])cc2C)cc1	0.8	0.68	-2.9	1.9	2%	-4	-1.1
CCOC(=O)C1=C(C)NC(C)=C(C(=O)OCC)C1c1cn(-c2ccccc2)nc1-c1ccco1	-0.9	0.79	3.8	-117	31µM*!	-5	0.8
CCOC(=O)CSc1cc(=O)n(CC)c2ccccc12	0.0	0.65	-0.6	-3.5	1%	17	1.4
CSCc1c(C(=O)OCC(=O)c2ccc[nH]2)oc2ccccc12	x	0.68	-0.1	4.4	23%	2	x
Cc1ccc(NC(=S)NCc2ccc(S(N)(=O)=O)cc2)cc1Cl	0.4	0.69	-6.8	5.1	-2%	5	-0.1
COc1cccc(NC(=O)CSc2nnc(-c3cccc(OC(C)C)c3)n2N)c1	0.6	0.68	1.8	4.1	-2%	-1	4.6
CCOc1ccc(NC(=O)Cn2nnc3c(cnn3-c3ccc(F)cc3)c2=O)cc1	-0.6	0.68	-6.5	-29	x	1	-1.0
Cc1cc(NC(=O)CSc2ncnc3c2cnn3-c2ccccc2)no1	-2.8	0.71	-1.2	4.2	-5%	7	-2.1
COc1ccc(CCNC(=O)c2cnn3c(C(F)F)cc(C)nc23)cc1OC	0.7	0.72	-4.0	3.8	-2%	8	0.5
CC(=O)N1c2ccc(S(=O)(=O)NCC3CCC(C(=O)NC4CCC(C)CC4)CC3)cc2CC1C (stereo not drawn)	1.6	0.67	3.2	4.3	1%	-15	3.2
Cc1cc(C(F)(F)F)n2[nH]c(=O)c(N=Nc3ccccc3)c2n1	-1.0	0.67	4.5	18	6%	-1	-2.1
CC(C)(C)c1ccc(C(=O)NCCCNC(=O)c2cccnc2)cc1	0.3	0.7	2.3	3.0	x	-1	1.5
COc1ccc(N=Nc2nc(-c3ccccc3)c(-c3ccccc3)[nH]2)cc1	-1.6	0.72	20	3.7	-4%	17	x
COc1ccc(-n2nc(C(=O)NCC(=O)N3CCCCC3)c3ccccc3c2=O)c(OC)c1	1.1	0.62	6.2	1.3	x	-1	2.4
O=C(CSC1=NC(=O)C(Cc2ccccc2)C(=O)N1)Nc1ncccn1 (stereo not drawn)	x	0.66	x	4.1	3%	x	x
CCN(CC)S(=O)(=O)c1ccc(OCC2CCCCO2)c([N+](=O)[O-])c1 (stereo not drawn)	-0.5	0.65	-2.9	3.9	x	-8	1.4
COc1ccc(CNC(=O)C/C(C)=N/NC(=O)COc2ccc(C)cc2Br)cc1	0.4	x	-0.8	x	-3%	11	-2.6
CCCNC(=S)NNC(=O)c1cccs1	0.6	0.71	-3.0	2.6	-11%	2	0.7
CC(Oc1ccc(Br)cc1)C(=O)O/N=C(\N)c1ccncc1 (stereo not drawn)	0.6	0.72	-1.1	8.3	x	8	-1.0
CCN1C(=O)CC(N2CCC(Nc3ccc(F)cc3)CC2)C1=O (stereo not drawn)	0.0	0.78	1.4	0.1	u	2	5.9
COc1ccc(S(=O)(=O)N2CCC(C(=O)N3CCOCC3)CC2)cc1OC	-0.7	0.65	5.5	0.9	7%	1	-0.9
Cc1cccc(NC(=O)C2CCCN(S(=O)(=O)c3ccc4[nH]c(=O)ccc4c3)C2)n1 (stereo not drawn)	1.5	0.67	0.0	4.6	5%	12	-2.2
CCc1nnc(NC(=O)CN2C(=O)NC3(CC(C)CC(C)(C)C3)C2=O)s1 (stereo not drawn)	0.6	0.69	2.3	2.3	-7%	0	0.4
Nc1cc(=O)[nH]c(SCCOc2ccccc2)n1	-0.2	0.63	-2.5	1.5	2%	3	0.3
CC(C)C(NC(=O)C(NC(=O)C1OC2OC(C)(C)OC2C2OC(C)(C)OC12)C(C)C)C(=O)O (stereo not drawn)	0.6	0.72	1.1	3.4	-2%	1	3.3
c1ccc(CSCc2cn3ccccc3n2)cc1	-3.2	0.65	0.2	1.6	u	-6	-5.4
O=C(Nc1ccc(Cl)cc1)Nc1csc([N+](=O)[O-])c1	-1.1	0.55	-0.6	5.0	15%	15	-1.7
COc1cc(C)ccc1OCCOCCOc1ccccc1Br	0.9	0.69	-0.6	-2.3	4%	-14	0.3
O=C(/C=C/c1cccc(F)c1)NC1CCN(Cc2ccccc2)CC1	0.0	0.69	4.0	4.1	x	2	0.0
CCN(c1ccc(NC(=O)COC(=O)C(C)N=C2NS(=O)(=O)c3ccccc32)cc1)C(C)C (stereo not drawn)	x	0.7	2.1	-1.5	1%	-2	x
CC1(C(=O)NC2CCCCCCC2)CCC(=O)N1Cc1ccco1 (stereo not drawn)	0.0	0.68	-0.2	1.6	14%	-1	-3.3
C/C(=N\NC(=O)c1cc(C(C)C)[nH]n1)c1ccncc1	-0.1	x	-0.3	x	x	-3	5.9
Cc1c(Cl)c(C(=O)NNC(=S)NCc2ccco2)nn1C	0.3	0.68	-1.4	1.9	23%	9	2.9
Cc1c(Cl)cnn1CC(=O)NC1C(=O)N2C(C(=O)O)=C(CSc3nnnn3C)CSC12 (stereo not drawn)	-0.2	0.074*	-8.7	-1.5	3%	11	7.1
O=C1CN(C(=O)c2ccc(Br)o2)C(c2ccccc2)c2cc(Br)ccc2N1 (stereo not drawn)	0.1	0.71	-2.6	1.7	3%	3	1.2
CCCCn1c(N)c(N(CCOC)C(=O)c2ccc(C)c(S(=O)(=O)N3CCCCC3)c2)c(=O)[nH]c1=O	1.9	0.72	-3.0	4.7	8%	7	7.8
O=C(NC(=S)NCCN1CCOCC1)c1ccccc1	-0.4	0.67	-2.7	2.5	x	-2	-0.1
COc1ccc(C(=O)N2CCN(CC(=O)N3CCOCC3)CC2)cc1	-0.1	0.69	0.4	-3.6	x	-12	-8.7
CC1N(C)c2cccc3cccc(c23)N1C	0.0	0.69	32	i	x	-108	-3.4
Cc1cc(NC(=O)Nc2cc(Cl)ccc2C)no1	-0.1	0.61	2.1	2.7	25%	-7	4.0
Cc1cc(F)ccc1S(=O)(=O)N1CCCCC1CCNC(=O)C(=O)NCCN1CCOCC1 (stereo not drawn)	-0.3	x	1.8	x	x	-3	0.8
O=C(Nc1ccc(Cl)cc1)Nc1ccon1	-2.2	0.63	1.9	2.4	x	1	-7.1
O=[N+]([O-])c1cccc(Nc2c3ccccc3nc3ccccc23)c1	-0.4	0.57	7.0	-183	u	-20	2.6
Cc1ccc(C(=O)CCS(=O)(=O)c2ccc(F)cc2)cc1	0.2	0.68	-0.3	1.4	x	23	-2.1
CCN(C(=O)C(C)OC(=O)CCCNC(=O)c1ccc(Cl)cc1)c1ccccc1 (stereo not drawn)	0.9	0.68	1.1	4.1	-12%	-3	1.5
CCC(C)COC(=O)c1ccc(C(=O)O)cc1 (stereo not drawn)	-0.4	0.71	-4.1	-2.9	-4%	0	-5.0
COc1cc(/C=C2/NC(=O)N(CC(=O)Nc3cccc(C)c3)C2=O)ccc1OCC(N)=O	-0.3	0.68	-1.2	-3.6	4%	-7	-1.6
O=C(N=C1SC2CS(=O)(=O)CC2N1Cc1ccccc1Cl)C1CCCO1 (stereo not drawn)	0.3	0.68	-1.5	3.2	x	0	-2.6
CSc1ccc(/C=C(\NC(=O)c2ccc(C)cc2)C(=O)Nc2cccc(C)c2)cc1	0.7	0.74	3.2	-22	-9%	4	-6.9
O=C(Cn1ncc2c1-c1ccccc1OC2)N(Cc1ccco1)C1CCCCC1	-0.4	0.76	-0.8	3.1	8%	-11	-2.4
C/C(=N\Nc1cccc(Cl)c1)C1(C)N(O)C(C)(C)C(c2ccco2)=[N+]1[O-] (stereo not drawn)	0.6	x	-1.2	x	2%	1	-0.5
COc1ccccc1OCC(=O)N1CCN(c2ccccc2OC)CC1	0.8	0.67	0.2	3.1	4%	-9	2.9
Cc1nc(SCc2ccc(F)cc2)c2oc3ccccc3c2n1	0.2	0.65	2.1	5.5	-291%	2	5.2
CC(=O)N1c2ccccc2NC2=C(C(=O)CCC2)C1c1ccc(F)cc1 (stereo not drawn)	1.5	0.69	-1.3	6.3	0%	0	-1.1
O=C(NCCN1CCCCC1)Nc1ccc(F)c(Cl)c1	0.2	0.65	-0.9	1.4	5%	-16	-1.4
Cc1cc(C)nc(NS(=O)(=O)c2ccc(NC(=O)C(C)Oc3ccccc3F)cc2)n1 (stereo not drawn)	-0.1	0.66	3.5	4.6	x	0	-0.5

New compounds follow
SMILES	Bfl-1 A1 inh	Ecoli growth	HNF4A DNA FP	UCH37 inh	Vif TR-FRET	B2AR ag	LANA-H2A inh
COC(=O)c1ccc(COc2ccc(C=O)cc2)o1	0.1	0.68	0.5	4.7	8%	3	-1.6
Cc1nc2ncnn2c(C)c1Cc1ccccc1Cl	-0.2	0.73	-0.8	7.4	1%	8	-1.2
CN(C(=O)CSc1nc2cc([N+](=O)[O-])ccc2n1-c1ccc(F)cc1)C1CCS(=O)(=O)C1 (stereo not drawn)	-0.1	0.68	0.3	3.0	16%	-4	-2.2
COc1ccc(C)cc1-n1c(SCC(=O)NC2CC2)nc2ccccc2c1=O	-1.7	0.67	-4.1	-1.3	20%	-8	1.6
CCCCN(C(=O)CNC(=O)c1ccco1)C(C(=O)NC1CCCCC1)c1cccnc1 (stereo not drawn)	0.5	0.65	1.0	0.4	1%	-13	-0.3
Cc1cc2c(cc1C)NC(c1nc3ccccc3[nH]1)C1=C(CC(C)(C)CC1=O)N2 (stereo not drawn)	1.0	0.73	-3.5	0.6	8%	2	-3.3
CCOc1ccc(C(C)NC(=O)c2cc(=O)[nH]c3ccccc23)cc1OCC (stereo not drawn)	-1.4	0.71	-2.2	-5.4	x	-10	1.3
CC(C)(C)c1ccc(C(=O)NCCOc2ccccc2)cc1	-4.5	0.68	1.8	1.6	5%	10	-7.8
CCC(=O)N1CCN(CCN=CC2=C(O)CC(c3cccs3)CC2=O)CC1 (stereo not drawn)	-0.7	0.69	3.5	0.1	7%	3	1.3
C/C(CC(=O)Nc1cccc2c1CCCC2)=N\NC(=O)COc1ccccc1	-0.2	x	3.6	x	x	-2	-4.4

Not a hit list. About 2.1% of those tested had a hit in this group.
